Compound activity: PubChem BioAssay, Broad Institute
Vaccinia stage = blocks a specific stage of Vaccinia orthopoxvirus infection | Vaccinia-infected cells, mCherry/Venus stage reporter fluorescence; hits give low values; some inactives read as strong as hits | activity change (mCherry), % (no concentration beside the values) | hit rate 0.01% among 89,000;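 active = mCherry past -33% and 40 or more points under the early reporter, replicates agreeing; inconclusive = past -33% without that gap or agreement; tested in A549 cells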;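 note: scaled between vehicle wells and reference inhibitor wells; 23 nL library stock went into each well; one replicate is shown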
Vaccinia stage Venus = further read-out of Vaccinia stage, marked with its call; activity change (Venus), %; measured here: Venus reporter, other viral stage;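 negative = less Venus signal; first of two replicates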
* hit, by the source's call; u = inconclusive; x = no result given; & = joins results of further samples. Some of the compounds tested; count on the stated rates, not on these rows.

SMILES | Vaccinia stage | Vaccinia stage Venus
CC(C)NC(=O)N(C)C[C@H]1Oc2ccc(N(C)C)cc2C(=O)N([C@H](C)CO)C[C@H]1C | 7 | 13
C[C@H](CO)N1C[C@H](C)[C@H](CN(C)Cc2ccncc2)Oc2ncc(C#CC3CC3)cc2C1=O | 10&16 | 7&3
CCCC(=O)Nc1ccc2c(c1)C(=O)N(C)[C@H]1CC[C@H](CC(=O)N3CCCCC3)O[C@@H]1CO2 | 22 | 13
CCCN1[C@@H]2Cn3c(ccc(C4=CCCCC4)c3=O)[C@H]1[C@@H](C(=O)N1CCOCC1)[C@@H]2CO | -4 | -3
O=C(Nc1ccccc1)N1C[C@@H]2[C@H](c3ccccc31)[C@@H](CO)N2C(=O)c1ccccn1 | 6 | -13
COCC(=O)N1CCCCN2[C@@H](CO)[C@H](c3ccc(-c4ccc(F)cc4)cc3)[C@@H]2C1 | 17 | -1
C[C@H]1CN([C@@H](C)CO)C(=O)c2cc(NC(=O)Cc3ccccc3)ccc2O[C@@H]1CN(C)S(C)(=O)=O | 4 | 12
Cc1noc(C)c1S(=O)(=O)Nc1ccc2c(c1)CC(=O)N([C@@H](C)CO)C[C@@H](C)[C@@H](CN(C)C(=O)NC1CCCCC1)O2 | 7 | -9
COc1ccc(-c2ccc3c(c2)[C@@H]2[C@@H](CCN2C(=O)C2CCCCC2)[C@H](CO)N3C)cc1 | u | x
CS(=O)(=O)N1CC2(C1)[C@@H](c1ccccc1)[C@@H](CO)N2Cc1ccccc1 | 2 | 3

4 entries drawn at random from the list so far, as already listed:
SMILES | Vaccinia stage | Vaccinia stage Venus
C[C@H]1CN([C@@H](C)CO)C(=O)c2cc(NC(=O)Cc3ccccc3)ccc2O[C@@H]1CN(C)S(C)(=O)=O | 4 | 12
CCCN1[C@@H]2Cn3c(ccc(C4=CCCCC4)c3=O)[C@H]1[C@@H](C(=O)N1CCOCC1)[C@@H]2CO | -4 | -3
CC(C)NC(=O)N(C)C[C@H]1Oc2ccc(N(C)C)cc2C(=O)N([C@H](C)CO)C[C@H]1C | 7 | 13
O=C(Nc1ccccc1)N1C[C@@H]2[C@H](c3ccccc31)[C@@H](CO)N2C(=O)c1ccccn1 | 6 | -13

New compounds follow.
SMILES | Vaccinia stage | Vaccinia stage Venus
CCC(=O)Nc1ccc2c(c1)OC[C@H](C)N(Cc1nccs1)C[C@H](C)[C@@H](OC)CN(C)C2=O | 7 | 3
C[C@@H]1CCCCO[C@@H](CN(C)C(=O)Nc2ccccc2)[C@@H](C)CN([C@H](C)CO)C(=O)c2cc(NC(=O)c3ccncc3)ccc2O1 | 34 | 21
Cc1ccc(S(=O)(=O)Nc2ccc3c(c2)C(=O)N([C@H](C)CO)C[C@H](C)[C@@H](CN(C)CC2CC2)O3)cc1 | 24 | 12
CC(=O)N1CCCCN2[C@H](CO)[C@H](c3ccc(-c4cccc(C(=O)N(C)C)c4)cc3)[C@@H]2C1 | 17 | 6
CC(=O)N1[C@@H]2c3ccc(-c4ccncc4)c(=O)n3C[C@H]1[C@H](CO)[C@H]2C(=O)NC1Cc2ccccc2C1 | 3 | 7
C[C@@H]1CN([C@@H](C)CO)S(=O)(=O)c2ccc(-c3cccc(C#N)c3)cc2O[C@H]1CN(C)C(=O)Nc1cc(F)ccc1F | 8 | -5
COCC(=O)N[C@@H]1CC[C@@H](CC(=O)NCc2ccc(Cl)cc2)O[C@@H]1CO | 14 | 10
C[C@@H]1CCCCO[C@@H](CN(C)C(=O)Nc2ccc(F)cc2)[C@@H](C)CN([C@H](C)CO)C(=O)c2cc(NC(=O)NC3CCCCC3)ccc2O1 | 21 | 17
CCCC(=O)Nc1ccc2c(c1)C(=O)N(C)C[C@@H](OC)[C@@H](C)CN(Cc1cncnc1)[C@@H](C)CO2 | 17 | 8
C[C@@H]1CN([C@@H](C)CO)S(=O)(=O)c2ccc(C#CC3CCCC3)cc2O[C@@H]1CN(C)C(=O)C1CC1 | -32 | -15
C[C@@H]1CCCCO[C@H](CN(C)C(=O)Nc2ccc3c(c2)OCO3)[C@@H](C)CN([C@H](C)CO)C(=O)c2cc(N(C)C)ccc2O1 | -1 | 4
C=CCOC(=O)[C@@H]1[C@H]2C(=O)O[C@H](c3ccccc3)[C@H](c3ccccc3)N2[C@H](c2ccc(OCCOC(=O)[C@@H]3C[C@@H]4C(=O)N[C@@H](Cc5ccccc5)C(=O)N4[C@@H]3c3ccc(O)cc3)cc2)[C@@]12C(=O)Nc1ccc(I)cc12 | 1 | 16
O=C(C[C@@H]1CC[C@@H]2[C@H](COC[C@@H](O)CN2Cc2nccs2)O1)NCc1ccccc1F | -3 | 7
C=CC(COC(C)=O)NS(=O)(=O)c1ccc(Br)cc1 (stereo not drawn) | 19 | 11
CO[C@@H]1CN(C)C(=O)c2ccc(NC(=O)C3CCCC3)cc2OC[C@@H](C)NC[C@H]1C | 2 | 4
COc1ccc(CN(C)C[C@H]2Oc3ccc(NS(=O)(=O)c4ccccc4)cc3C(=O)N([C@@H](C)CO)C[C@@H]2C)cc1 | 6 | -3
CC(C)NC(=O)N(C)C[C@@H]1Oc2ncc(-c3ccc(F)cc3)cc2C(=O)N([C@H](C)CO)C[C@@H]1C | 9 | 6
O=S(=O)(c1ccc(F)cc1)N1CCCCN2[C@@H](CO)[C@H](c3ccc(-c4ccccc4F)cc3)[C@@H]2C1 | -20 | -10
CCC(=O)Nc1ccc2c(c1)OC[C@H](C)N(C(=O)C1CC1)C[C@H](C)[C@H](OC)CN(C)C2=O | 10 | 6
COCC#Cc1cnc2c(c1)C(=O)N([C@@H](C)CO)C[C@H](C)[C@@H](CN(C)C(=O)Cc1cccnc1)O2 | 18 | 12
O=C(Nc1cc(F)ccc1F)N[C@H]1CC[C@H](CC(=O)N2CCc3ccccc3C2)O[C@@H]1CO | -14 | -5
Cc1ccc(S(=O)(=O)N(C)C[C@@H]2Oc3c(NC(=O)CCCCCC(=O)Nc4ccccc4N)cccc3C(=O)N([C@@H](C)CO)C[C@H]2C)cc1 | 23 | 8
C[C@H](CO)N1C[C@H](C)[C@@H](CN(C)C(=O)Nc2ccc(C(F)(F)F)cc2)Oc2ncc(C#C[C@@H](C)O)cc2C1=O | 4 | -5
C[C@@H]1CCCCO[C@@H](CN(C)CC2CCCCC2)[C@@H](C)CN([C@@H](C)CO)C(=O)c2cc(NC(=O)CCCN(C)C)ccc2O1 | -11 | -7
C[C@@H]1CN([C@H](C)CO)C(=O)CCCn2nncc2CO[C@@H]1CN(C)S(=O)(=O)c1ccc(Oc2ccccc2)nc1 | -2 | -2
CC(=O)N(C)C[C@@H]1Oc2cc(-c3ccccc3F)ccc2S(=O)(=O)N([C@H](C)CO)C[C@@H]1C | -8 | -5
O=C(Cc1cccnc1)N1CC2(C1)[C@H](c1ccccc1)[C@H](CO)N2C(=O)C1CCC1 | 2 | 5
COc1ccc(CN(C)C[C@@H]2OCCCC[C@@H](C)Oc3ccc(NS(C)(=O)=O)cc3C(=O)N([C@@H](C)CO)C[C@@H]2C)cc1 | -10 | 1
Cc1noc(C)c1S(=O)(=O)N(C)C[C@@H]1Oc2ccc(NS(=O)(=O)c3cccs3)cc2C(=O)N([C@H](C)CO)C[C@@H]1C | -10 | -7
C[C@@H]1CN([C@H](C)CO)C(=O)c2cc(NC(=O)Nc3ccccc3)ccc2O[C@H]1CN(C)CC1CCCCC1 | -1 | -6
CCN1[C@@H]2c3ccc(-c4cccc(F)c4)c(=O)n3C[C@@H]2[C@@H](CO)[C@@H]1C(=O)NCCCN(C)C | 7 | 4
O=C(C[C@H]1CC[C@H](NC(=O)c2cccnc2)[C@H](CO)O1)NCc1ccc(Cl)c(Cl)c1 | -15 | -7
C/C=C/c1ccc([C@@H]2[C@H]3CN(Cc4ccccc4)CC(=O)N3[C@H]2CO)cc1 | -9 | -5
CN(C)CC(=O)N1[C@H](C#N)[C@H](c2ccccc2-c2cccc(C(=O)N(C)C)c2)[C@@H]1CO | 8 | 5
COc1ccccc1-c1cnc2c(c1)C(=O)N([C@H](C)CO)C[C@@H](C)[C@@H](CN(C)Cc1ccncc1)O2 | 11 | 2
N#Cc1ccc(-c2ccc([C@@H]3[C@@H](CO)N4C(=O)CNC[C@H]34)cc2)cc1 | 1 | 0
C[C@@H]1CN([C@@H](C)CO)C(=O)c2cc(NS(=O)(=O)c3cn(C)cn3)ccc2O[C@H]1CN(C)S(=O)(=O)c1cccs1 | 21 | 13
CC(=O)N1[C@H](CN(CC2CCC2)C(=O)CC2CC2)[C@@H](c2ccccc2)[C@@H]1CO | 10 | 10
COc1cccc(-c2ccc3c(c2)O[C@H](CN(C)C(=O)C2CCCCC2)[C@H](C)CN([C@@H](C)CO)S3(=O)=O)c1 | u | x
C[C@H]1CCCCO[C@@H](CN(C)S(=O)(=O)c2ccccc2)[C@@H](C)CN([C@@H](C)CO)C(=O)c2cc(NC(=O)C3CCCCC3)ccc2O1 | u | x
COc1ccc(NC(=O)N2CCCCN3[C@H](CO)[C@H](c4ccc(C#Cc5ccccc5)cc4)[C@H]3C2)cc1 | u | x
CC(C)NC(=O)Nc1ccc2c(c1)C(=O)N([C@H](C)CO)C[C@H](C)[C@@H](CN(C)C(=O)Nc1ccc3c(c1)OCO3)OCCCC[C@@H](C)O2 | 18 | 11
O=C([C@H]1[C@H](CO)[C@H]2Cn3c(cccc3=O)[C@@H]1N2Cc1cccc(Cl)c1)N1CCCCC1 | 4 | 10
C[C@@H]1CN([C@@H](C)CO)C(=O)c2cccc(NS(=O)(=O)c3ccc(Cl)cc3)c2O[C@@H]1CN(C)Cc1ccc(Cl)c(Cl)c1 | -11 | -13
C[C@H](CO)N1C[C@H](C)[C@@H](CN(C)C(=O)Nc2ccc(C(F)(F)F)cc2)OCCCC[C@H](C)Oc2ccc(NC(=O)CCC(F)(F)F)cc2C1=O | -14 | -16
COc1ccc2c3c([nH]c2c1)[C@H](CO)N(C(=O)Nc1ccc(F)cc1)CC31CCN(CC2CCOCC2)CC1 | -20 | -19
C[C@@H]1CN([C@H](C)CO)C(=O)CCCn2nncc2CO[C@@H]1CN(C)Cc1ccc(C(=O)Nc2ccccc2N)cc1 | -2 | -6
O=C(C[C@H]1C=C[C@H](NC(=O)CCN2CCCCC2)[C@H](CO)O1)Nc1ccc(-c2ccccc2)cc1 | u | x
CO[C@@H]1CN(C)C(=O)c2ccc(NC(=O)c3ccc(F)cc3)cc2OC[C@H](C)N(C(C)=O)C[C@@H]1C | -1 | 0
COc1ccc(-c2cnc3c(c2)C(=O)N([C@H](C)CO)C[C@@H](C)[C@@H](CN(C)C(=O)Nc2c(C)noc2C)O3)cc1 | 6 | 4

Looked up above:
COc1ccc2c3c([nH]c2c1)[C@H](CO)N(C(=O)Nc1ccc(F)cc1)CC31CCN(CC2CCOCC2)CC1 @ Vaccinia stage: -20
O=C([C@H]1[C@H](CO)[C@H]2Cn3c(cccc3=O)[C@@H]1N2Cc1cccc(Cl)c1)N1CCCCC1 @ Vaccinia stage: 4
C[C@@H]1CN([C@@H](C)CO)C(=O)c2cccc(NS(=O)(=O)c3ccc(Cl)cc3)c2O[C@@H]1CN(C)Cc1ccc(Cl)c(Cl)c1 @ Vaccinia stage: -11

More records follow.
SMILES | Vaccinia stage | Vaccinia stage Venus
CCCNC(=O)Nc1ccc2c(c1)OC[C@@H](C)N(Cc1ccc(-c3ccccn3)cc1)C[C@@H](C)[C@@H](OC)CN(C)C2=O | -5 | 0
C[C@H]1CN([C@@H](C)CO)S(=O)(=O)c2ccc(-c3ccncc3)cc2O[C@@H]1CN(C)C(=O)Nc1ccc(F)cc1 | 3 | 2
CCCNC(=O)[C@H]1[C@H](CO)[C@H]2Cn3c(ccc(C4=CCCC4)c3=O)[C@H]2N1CCC | 10 | 9
COc1ccc(CN(C)C[C@H]2Oc3ccc(NC(=O)Nc4ccc(OC)cc4)cc3C(=O)N([C@@H](C)CO)C[C@H]2C)cc1 | -24 | -7
COc1ccc2c3c(n(C)c2c1)[C@H](CO)N(C(=O)C1CC1)CC31CN(Cc2cccc(F)c2)C1 | u | x
C[C@@H]1CN([C@@H](C)CO)C(=O)c2cc(NC(=O)CCN3CCOCC3)ccc2O[C@@H]1CN(C)Cc1ccc(Oc2ccccc2)cc1 | u | x
O=C(C[C@@H]1C[C@H]2c3cc(NC(=O)C4CCOCC4)ccc3O[C@H]2[C@@H](CO)O1)NCc1cccc(F)c1 | 11 | 5
O=S(=O)(c1ccccc1)N1CCCCN2[C@H](CO)[C@H](c3ccc(C#CC4CCCC4)cc3)[C@@H]2C1 | 3 | 1
O=C(NCc1nc2ccccc2[nH]1)C1=C[C@@H](c2csc3ccccc23)C[C@@H](OCc2ccc(CO)cc2)O1 | -11 | 3
C[C@H](NC(=O)C[C@H]1CC[C@@H](NC(=O)Cc2ccccn2)[C@@H](CO)O1)c1ccccc1 | 7 | 4
COc1ccc2c3c(n(C)c2c1)[C@@H](CO)NCC31CN(Cc2cc(-c3ccccc3)on2)C1 | 5 | -3
C[C@@H]1CN([C@H](C)CO)C(=O)c2cc(C3=CCCCC3)cnc2O[C@@H]1CN(C)Cc1cccnc1 | 13 | 19
COCC(=O)Nc1ccc2c(c1)C(=O)N(C)[C@@H]1CC[C@H](CC(=O)NCCc3ccccc3)O[C@@H]1CO2 | 3 | 4

A different layout for some results above.
Values in the order: Vaccinia stage | Vaccinia stage Venus
> CCCNC(=O)Nc1ccc2c(c1)OC[C@@H](C)N(Cc1ccc(-c3ccccn3)cc1)C[C@@H](C)[C@@H](OC)CN(C)C2=O
→ -5 | 0
> C[C@H]1CN([C@@H](C)CO)S(=O)(=O)c2ccc(-c3ccncc3)cc2O[C@@H]1CN(C)C(=O)Nc1ccc(F)cc1
→ 3 | 2
> CCCNC(=O)[C@H]1[C@H](CO)[C@H]2Cn3c(ccc(C4=CCCC4)c3=O)[C@H]2N1CCC
→ 10 | 9
